Sa RN4220 lethal: S. aureus RN4220 growth inhibition | OD600, 16 h | inhibition, % (test concentration not listed) | hit rate 0.33% among 330,000 | AID 1259311;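 active means z-score of -3 or lower and OD600 up to 0.18 on both plates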;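 further: plate controls were untreated cells for no effect and reference antibiotic for full effect; stock transfer was 100 nL into about 80 µL; one replicate is shown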
Bead autofluor: flagged as autofluorescent in microsphere protease counterscreen; compound autofluorescence counterscreen, microsphere flow cytometry; active compounds read high; fluorescence intensity (no concentration beside the values); hit rate 3.1% among 360,000; AID 624483;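 active means at least 3 SD above the mean of all compounds, about 16000 in these data; inconclusive means too few beads counted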;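 further: 100 nL of 1 mM stock went into each well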
BJeLR viability: kills HRASV12-expressing BJeLR cells; BJeLR (HRASV12) viability, CellTiter-Glo ATP luminescence, 48 h; reference of the scale not given here; inhibition, % (no concentration beside the values); hit rate 0.17% among 300,000;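 active means replicate mean above 50%; inconclusive means above 50% but judged a plate artefact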;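 further: 50 nL library stock added to about 25 µL; numbers are from one replicate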
PrP 5UTR inh: inhibition of PrP 5' UTR reporter expression; cell-based PrP 5' UTR mRNA reporter, plate reader; inhibition, % (no concentration beside the values); hit rate 0.35% among 340,000;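 active means every replicate at 50% or more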;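 further: 0 = median of the neutral control wells; tested in H4 reporter cells; numbers are from one replicate; inactives centre near -14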
Mtb hypoxia inh: inhibitors of hypoxia-regulated fluorescent reporter in Mycobacterium tuberculosis. hit rate 0.1% among 300,000. M. tuberculosis hypoxia-regulated fluorescent reporter, fluorescence. fluorescence inhibition, % (concentration not given with the values);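 active means 35 to 45% if threefold the growth effect, above 45% if 1.5-fold the growth effect; inactive means the rest, general growth blockers included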;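 further: wells of about 50 µL received 100 nL stock; 0% = vehicle wells and 100% = reference inhibitor wells; whole bacteria with a GFP reporter of the hypoxia response; strong numbers were not always called active; many hits fall short of the cut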
Sa ugtP lethal: compounds lethal to S. aureus RN4220 ugtP deletion mutant; OD600 growth, 16 h; some inactives read as strong as hits; growth inhibition, % (no concentration beside the values); hit rate 0.54% among 330,000;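 active means z-score under -3 and OD600 up to 0.15 on both plates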;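 further: plate controls were untreated wells for no effect and antibiotic for full effect; wells of about 80 µL received 100 nL stock; the first replicate is given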
Mtb hypoxia inh growth: recorded beside Mtb hypoxia inh, whose call it bears; growth inhibition, %; measured here: M. tuberculosis growth (absorbance);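 0% = vehicle and 100% = reference antibiotic; read after six days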
Starred values were filed as active, the others as inactive; ? = inconclusive; . = not tested or not shown; & = joins results of further samples.

Results follow in this order: Sa RN4220 lethal	Bead autofluor	BJeLR viability	PrP 5UTR inh	Mtb hypoxia inh	Mtb hypoxia inh growth	Sa ugtP lethal
S=c1[nH]nc(-c2cccnc2)n1N=Cc1ccc(Br)s1
  24	.	.	.	1	-1	9
CC(=O)N(C)c1ccc(NC(=O)C(c2ccccc2)c2ccccc2)cc1
  0.7	4173	2	-7	1	-5	8
Cc1ccc(S(=O)(=O)N2CCN(c3ccccc3)CC2)cc1
  2.1	3052	3	-2	8	2	8
CCOC(=O)c1c(NCc2ccccc2)n[nH]c1C
  3.8	2592	-18	-3	-5	-2	-2
Cn1cc(/C(Cc2ccccc2)=N\O)c2ccccc21
  .	8911	-3	-3	.	.	.
O=C(NCC1CCCO1)C(=O)NN=Cc1ccc(O)c(Cl)c1 (configuration not stated)
  4.9	.	.	.	17	7	3
Cc1ccc(NC(=O)c2nc3nccc(C)n3n2)c(C)c1
  6.7	4476	4	-31	12	2	3
CN(CCCNC(=O)C1CCCN(S(=O)(=O)c2cnc[nH]2)C1)c1ccccc1 (configuration not stated)
  3.1	5840	-1	-1	.	.	6
CCOC(=O)c1[nH]c(C)c(C(=O)c2ccc(C)cc2)c1C
  1.4	10064	37	.	4	5	13
Cc1nc(CCNC(=O)Cc2ccc(F)cc2)cs1
  5.4	5121	-2	-1	8	6	6
COc1ccc(Cl)cc1NC(=O)CN(C)C(=O)c1ccc(N2CCCCC2)c([N+](=O)[O-])c1
  -0.2	6134	-10	2	0	7	-5
O=C(Cc1ccc(F)cc1)NCc1cccnc1
  2.5	2470	1	-27	11	7	8
COCCn1c(CN(C)Cc2ccccc2)nc2c1c(=O)n(C)c(=O)n2C
  -14	4710	-1	-4	4	8	-7
CC(C)(C)C1CCC2(CC1)CC(=O)c1ccccc1O2 (configuration not stated)
  1.1	4463	-12	-23	19	2	0
O=C1c2nc3cc(-c4ccco4)[nH]n3c(=O)c2CN1Cc1ccccc1
  7.3	3711	20	.	4	6	1
O=C(NN=C(Cc1ccccc1)Cc1ccccc1)c1ccncc1
  3.3	6467	-3	-7	.	.	1
CC(C)(C)SCCNC(=O)CN(c1ccc(F)cc1)S(=O)(=O)c1ccccc1
  2.0	4387	0	-15	-1	3	0
Nc1c2c3c(sc2nc(=O)n1N)CCCC3
  -2.2	4352	6	-33	8	10	2
COC(=O)c1cc(C(C)=O)c(C)[nH]c1=O
  -1.5	4265	8	-17	6	0	-3
O=C(CCS(=O)(=O)c1ccc(Br)cc1)Nc1ccc(Cl)cc1F
  3.9	2454	-1	-6	9	0	6
CCCCCC(=O)NC(=S)NNC(=O)CC
  7.7	12166	6	-13	4	8	-21
N#Cc1c(N)n(Cc2ccccc2)c(=O)c2cc([N+](=O)[O-])ccc12
  -5.4	3957	1	-10	6	1	11
CCC1(CC)NC(=O)N(CC(=O)Nc2sc3c(c2C(N)=O)CCC3)C1=O
  4.6	3496	-4	4	0	12	-1
N#Cc1ccccc1OCC(=O)NNC(=O)CNC(=O)c1ccc(Br)o1
  5.4	4044	.	-3	4	8	-4
O=C1NC(=S)N(c2ccc(Cl)cc2)C(=O)/C1=C/N1CCN(C(=O)c2ccco2)CC1
  .	3416	5	-1	.	.	.
CON(C)C(=O)C=CCCCCNC(=O)OC(C)(C)C
  5.4	.	.	.	12	7	-5
O=C(NC(=S)Nc1ccccc1N1CCCCC1)c1ccc(-c2cccc([N+](=O)[O-])c2)o1
  5.4	5768	8	-13	0	16	4
CC(=O)Nc1ccc(S(=O)(=O)c2c(N)n(CCN3CCOCC3)c3nc4ccccc4nc23)cc1
  5.9	3539	-6	5	.	.	6
O=C(CSCC(=O)NC1CC1)Nc1ccc2ccccc2c1
  -21	3265	8	-8	1	8	-6
COc1ccc(CCc2nnc(CCC(=O)NCc3cc(C(C)C)no3)o2)cc1
  1.7	2637	-6	-20	4	4	-3

Quoted from the listing:
CCC1(CC)NC(=O)N(CC(=O)Nc2sc3c(c2C(N)=O)CCC3)C1=O @ Sa ugtP lethal = -1
O=C(NC(=S)Nc1ccccc1N1CCCCC1)c1ccc(-c2cccc([N+](=O)[O-])c2)o1 @ BJeLR viability = 8

Next structures follow:
Results follow in this order: Sa RN4220 lethal	Bead autofluor	BJeLR viability	PrP 5UTR inh	Mtb hypoxia inh	Mtb hypoxia inh growth	Sa ugtP lethal
CCOC(=O)CC1C(=O)NCCN1S(=O)(=O)c1cccc(C(F)(F)F)c1 (configuration not stated)
  3.1	6231	11	-9	5	5	-2
COc1ccc(OC)c(Nc2nnc(C)c(=O)[nH]2)c1
  0.5	.	6	.	-9	3	1
CC(C)C=NNC(=O)CCCCC(=O)NN=CC(C)C
  2.1	.	.	.	-1	-11	1
CCOC(=O)c1cc2sccc2n1CC(=O)OC(C)C
  5.8	7209	5	-2	-5	-1	-4
CC(=O)Nc1ccc(NCc2cccs2)cc1
  -0.2	3444	5	-3	3	-1	6
CCN(CC)c1ccc(N2C(=O)C3CCCCC3C2=O)cc1[N+](=O)[O-] (configuration not stated)
  1.6	2064	-12	-17	8	6	6
Cc1ccc(C)c(S(=O)(=O)Nc2ccc(C(=O)N3CCCCC3)cc2)c1
  5.6	4355	-3	-12	5	-3	12
COc1ccccc1N1CCN(C2CCCN(C(=O)c3csc(C)n3)C2)CC1 (configuration not stated)
  -0.7	4461	5	4	-19	-4	-4
COc1cc2cc(CCCOC(=O)c3ccc4c(c3)OCO4)oc(=O)c2cc1OC
  -8.4	4027	.	-19	8	5	-5
O=C(NCCCn1ccnc1)c1ccncc1
  -2.3	8926	-2	-27	-9	-12	1
CCc1nnc(NS(=O)(=O)c2ccc(NC(=O)c3cc(Cl)ccc3[N+](=O)[O-])cc2)s1
  3.1	4290	4	0	0	2	14
Cc1cc(C)nc(NC(=O)Nc2ccccc2C(F)(F)F)n1
  8.6	21408*	3	-32	1	7	3
CC1CCC(NC(=O)c2cccc(S(=O)(=O)N3CCN(c4ccccc4)CC3)c2)CC1 (configuration not stated)
  1.4	?	0	-9	1	3	5
Cn1ncc2c(Nc3ccccc3Br)ncnc21
  15	4723	0	-12	.	.	-1
CCOC(=O)C1CCN(C(=O)Cn2c(=O)c3cccn3c3cccnc32)CC1
  2.4	5080	-3	-7	6	-3	1
Cc1noc(C)c1CS(=O)(=O)Cc1ccc(Cl)cc1
  3.1	4442	-2	-36	3	-4	0
CN(c1ncc(C(F)(F)F)cc1Cl)n1cc(C(=O)O)c2ccccc2c1=O
  -2.9	3858	-9	-13	.	.	-1
CC(C)(C)NC(=O)C(OC(=O)c1cccs1)c1ccc(C#N)cc1 (configuration not stated)
  3.3	4562	-12	0	0	10	13
CCOc1ccc(NC(=O)N2CCN(Cc3ccc4c(c3)OCO4)CC2)cc1
  1.3	2180	-2	-6	12	10	5
CCOC(=O)c1cnn(-c2nc(SC)nc3sc4c(c23)CCC4)c1N
  2.4	2473	-4	-16	.	.	-5
CC(=O)c1ccccc1NC(=O)COC(=O)c1ccc2c(c1)nc(C)n2-c1ccccc1
  14	.	-5	.	15	9	-10
COc1ccc(C2c3[nH]c4ccccc4c3C[C@H]3C(=O)N(c4ccccc4C(=O)NCCN4CCOCC4)C(=O)N23)cc1 (some centres not stated)
  0.3	5853	-4	-9	.	.	4
O=C(O)c1[nH]nc2c1COc1ccccc1-2
  -9.3	2741	.	-20	.	.	9
CN1CCN(c2nc3c(c(=O)[nH]2)CCC3)CC1
  3.7	4238	-1	-20	-7	0	12
Cc1ccc(S(=O)(=O)N(C)C)cc1NC(=S)N(C)C1CCN(C)CC1
  2.4	3943	-4	-2	-1	4	7
CCCCCCSc1cccc(-c2nc3cc(C)ccn3c2NCc2ccccc2)c1
  2.5	3049&4361	-2	-5	1	2	12
COc1cc(S(=O)(=O)N2CCN(C(=O)c3ccco3)CC2)ccc1Cl
  6.2	3918	4	-13	-5	-3	13
CN(C)CC1Oc2ccccc2OC1(O)c1ccccc1 (configuration not stated)
  31	3136	24	-8	.	.	20
Cc1c(NC(=O)Nc2ccc(F)cc2F)c(=O)n(-c2ccccc2)n1C
  -3.1	4361	4	-11	2	1	-6
CC(=O)C1=C(O)C(=O)N(CO)C1c1ccccc1F (configuration not stated)
  2.3	9073	-5	-1	5	1	-3
CCOC(=O)c1c(-c2cccs2)csc1N
  8.8	4569	1	-8	13	8	-3
CN(C)S(=O)(=O)N1CCN(CC(=O)Nc2cc(Cl)ccc2Cl)CC1
  1.3	5786	0	1	7	21	-1
N#Cc1c(Oc2ccc3ccccc3c2)sc(C(=O)c2ccccc2)c1N
  -6.1	4158	0	-15	.	.	8
CCOC(=O)C1CCN(C(=O)COC(=O)CNC(=O)c2ccc(C(C)(C)C)cc2)CC1
  3.4	4050	.	-7	6	3	4
CNC(=S)N(Cc1ccco1)Cc1cc2cc(OC)c(OC)cc2[nH]c1=O
  5.1	3258	-4	-5	3	-4	20
CC(Nc1cccc2ccccc12)C(=O)N/N=C/c1ccccn1 (configuration not stated)
  .	6515	0	-11	.	.	.
CC(=O)OC(C)(C)/C=C/C(=O)C(C)(O)C1[C@H](O)C[C@@]2(C)C3CC=C4C(CC[C@@H](O)C4(C)C)[C@]3(CO)C(=O)C[C@]12C (some centres not stated)
  3.1	3844	26	81*	19	8	14
COCCNC(=O)CCn1nc(-c2ccc(C)cc2)c2ccccc2c1=O
  2.4	4201	-6	-19	4	-5	5
O=C(Cc1ccc(Br)cc1)Nc1nc2ccccc2[nH]1
  4.6	4524	-9	-37	-5	4	-3
CCOc1ccccc1C=NNC(=O)CCCCC(=O)NN=Cc1ccccc1OCC
  6.9	3358	.	-33	8	4	-13
O/N=C/c1cc(Br)ccc1OCc1ccccc1F
  .	2506	4	-26	.	.	.
CC(=NNc1ccc([N+](=O)[O-])cc1[N+](=O)[O-])c1ccc(-n2nncc2C(C)(C)C)cc1
  -2.8	.	.	.	-7	4	-6
O=C(COC(=O)c1ccc2ncsc2c1)NCc1ccc(F)cc1
  -1.2	8640	.	-26	11	7	4
CC(=O)c1cccc(S(=O)(=O)N2CCC(C(=O)OC3CCOC3=O)CC2)c1 (configuration not stated)
  0.5	3963	.	-32	2	5	2
N#CCCN(CCC#N)S(=O)(=O)c1ccc(C(=O)Nc2nc(-c3ccccc3)c(C(=O)c3ccccc3)s2)cc1
  -0.1	5202	-18	-28	13	9	15

Two entries from above in another layout:
molecule	Sa RN4220 lethal	Bead autofluor	BJeLR viability	PrP 5UTR inh	Mtb hypoxia inh	Mtb hypoxia inh growth	Sa ugtP lethal
CC(=O)OC(C)(C)/C=C/C(=O)C(C)(O)C1[C@H](O)C[C@@]2(C)C3CC=C4C(CC[C@@H](O)C4(C)C)[C@]3(CO)C(=O)C[C@]12C (some centres not stated)	3.1	3844	26	81*	19	8	14
COCCNC(=O)CCn1nc(-c2ccc(C)cc2)c2ccccc2c1=O	2.4	4201	-6	-19	4	-5	5

New compounds follow.
Results follow in this order: Sa RN4220 lethal	Bead autofluor	BJeLR viability	PrP 5UTR inh	Mtb hypoxia inh	Mtb hypoxia inh growth	Sa ugtP lethal
CC(Oc1ccc(Br)cc1)C(=O)Nc1ccncc1 (configuration not stated)
  0.6	2677	3	-15	0	0	-4
CC(OC(=O)c1cc(Br)ccc1O)C(=O)Nc1ccc(S(=O)(=O)N2CCCC2)cc1 (configuration not stated)
  .	4797	-14	-7	.	.	.
CC(C)Oc1ccccc1OCCCOc1cccc2cccnc12
  9.0	4660	0	-12	6	4	-2
O=C1C2CCCN2C(c2cccc(Cl)c2)N1c1ccccn1 (configuration not stated)
  -2.7	9574	-5	-17	5	12	-8
Clc1cccc(Cl)c1CNCCCSc1ncccn1
  3.2	.	-10	-8	7	0	17
COc1ccc(-c2nnc(SCC(=O)Nc3sc4c(c3C#N)CCCC4)n2-c2ccccc2)cc1
  7.8	10731	2	-22	2	4	-3
CC(=O)Nc1ccc(N(C(=O)Cn2nnc3ccccc32)C(C(=O)NC2CCCC2)c2ccc(O)c(O)c2)cc1 (configuration not stated)
  6.9	3547	4	-26	8	0	9
Cc1ccccc1-n1c(-c2ccc(=O)[nH]n2)n[nH]c1=S
  2.3	2836	-3	-6	7	-2	3
Cc1ccc(OCC(=O)NCCCNC(=O)c2ccco2)cc1C
  -1.6	3788	8	-18	10	11	-3
COc1ccc(C=NNC(=O)c2cccnc2)cc1COc1ccc([N+](=O)[O-])cc1
  -0.4	.	.	.	-1	-1	3
COc1ccc(C(C(=O)NCc2ccc(F)cc2)N(Cc2cccnc2)C(=O)c2snc(C(N)=O)c2N)cc1 (configuration not stated)
  0.4	3226	-1	3	5	-2	-1
CCN(CC(=O)NCc1cccs1)C(=O)CCOc1ccccc1
  4.9	4259	.	-36	8	10	-1
